# Screens deposited in PubChem by National Center for Advancing Translational Sciences (NCATS).
# RE007 growth inh – less growth of the S. pombe RE007 Vpr strain; S. pombe RE007 Vpr strain, BacTiter-Glo ATP luminescence, 24 h; control for the full effect not named in the record; Potency, µM (titrated, usually from 92.2 µM), for inactives: at the top dose activity change, negative = less growth; actives 0.21% (n = 360,000); AID 651644; active = well fitted falling curve with a large enough effect; inconclusive = small, poorly fitted or top-dose-only effect; inactive = no such curve, though single readings can be large or run the other way;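 note: nearly all actives have a fitted effect of over 50% in size; the assay follows cell death caused by Vpr and the record does not say whether a fall means rescue or toxicity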
#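 Fission yeast RE007 carrying one integrated HIV-1 vpr copy, seeded at OD 0.01 in PMG+AL medium with 23 nL pinned compound. Grown 24 h at 30 degrees; viability read by BacTiter-Glo luminescence after 5 min.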
# StopGo reporter – lowers the luciferase signal of an FMDV 2A StopGo reporter; human cells with a luciferase reporter of 2A StopGo recoding; control for the full effect not named in the record; Potency, µM (highest dose often 57.9 µM), for inactives: at the top dose signal change, negative = less light; actives 1.2% (n = 410,000); active = well fitted falling curve with a large enough effect; inconclusive = small, poorly fitted or top-dose-only effect; inactive = no such curve, though single readings can be large or run the other way; tested in HEK293T cells; note: nearly all actives have a fitted effect of over 45% in size; luciferase light after 4 h
# The depositor's hits bear a star; ? = inconclusive; [ ] = dose if it differs, or a comment. % is set by controls: 0 for no effect and ±100 for the full control effect; potency is the fitted concentration of half-maximal effect.
# Each structure is followed by: RE007 growth inh | StopGo reporter
- Cc1onc(-c2ccccc2)c1C(=O)N1CCCC(C)(C(=O)NS(=O)(=O)C2CC2)C1 (stereo not drawn)
→ -10.7% | -21.7%
- CC(C)C[C@H]1COCCS(=O)(=O)N1Cc1ccccc1F
→ 1.2% | -14.6%
- CC(=O)c1cccc(-c2ccnc3c2CC(C(=O)NCc2ccncc2)O3)c1 (stereo not drawn)
→ -13.4% | -8.6%
- Cc1ccc(NC(=O)CN(C)C(=O)C2CSC3(C)CCC(=O)N23)cc1 (stereo not drawn)
→ -3.3% | 0.0%
- COc1cc(C(=O)OCc2csc(CC(=O)Nc3cc(C)ccc3C)n2)ccc1OC(F)F
→ -4.8% | -29.2%
- Cc1ccc(CS(=O)Cc2ccc(C(=O)NCCCc3ccccc3)o2)cc1 (stereo not drawn)
→ -5.6% | -19.2%
- O=C(NCc1ccccc1)C(c1ccco1)N1CCN(c2ccccc2F)CC1 (stereo not drawn)
→ 3.0% | -18.4%
- Cc1ccc(Cc2c(-c3ccc(C#N)cc3)nc3ccc(Br)cn23)cc1
→ 12.5% | -1.6%
- CC(C)n1c(=O)c2ccccc2n1CC(=O)N1CCOCC1
→ 10.0% | -18.4%
- Nc1ccc(CCNc2ncnc3c2ncn3[C@@H]2O[C@H](CO)[C@@H](O)[C@H]2O)cc1
→ -0.4%[18.4 µM] | -6.0%
- CCCCn1nnnc1C(c1cc2ccccc2o1)N1CCCC1 (stereo not drawn)
→ 1.3% | -9.9%
- Cc1noc(C)c1-c1ccc(C(=O)NCc2ccccc2)c2occc12
→ -5.1% | 25.3%
- COc1ccc(C(c2nnnn2Cc2ccccc2)N2CCC(n3c(=O)[nH]c4ccccc43)CC2)cc1 (stereo not drawn)
→ -3.3% | -21.5%
- COC(=O)C[C@H]1CC[C@@H](NC(=O)Nc2c(C)noc2C)[C@@H](CO)O1
→ -5.6% | -10.7%
- O=C(N[C@@H]1CC[C@H](CCn2cc(-c3ccccn3)nn2)O[C@@H]1CO)c1ccncc1
→ -13.1% | -16.9%
- CCN1C[C@@]2(COC)C3[C@@H](OC)[C@H]4[C@@H]1[C@@]3(C1C[C@H]3[C@H](OC(C)=O)C1[C@]4(OC(C)=O)C[C@H]3OC)[C@@H](OC)C[C@H]2OC(C)=O (stereo partly drawn)
→ 7.5% | -10.9%
- CCN(C(=O)CSc1nnc(-c2ccc(OC)cc2)n1N)c1c(N)n(Cc2ccccc2)c(=O)[nH]c1=O
→ 15.5% | -15.9%
- COc1cccc(-c2cnc3cccnn23)c1
→ -11.3% | 30.3%[activator]
- CC(=O)NCCNc1nc2cc(-c3cnn(CCC(C)C)c3)sc2c(=O)n1C
→ -4.0% | ?
- CCCS(=O)(=O)NC(=O)C1(C)CCN(C(=O)c2cc(C)on2)C1 (stereo not drawn)
→ 8.0% | -9.8%

# Following part
# Each structure is followed by: RE007 growth inh | StopGo reporter
- C/C(CCc1ccc2c(c1)OCO2)=N\N=C1\NC(=O)CC(C(=O)Nc2ccc(C(=O)O)cc2)S1 (stereo not drawn)
→ -5.0% | -16.4%
- CN1C(=O)C(c2cn(C)c3ccccc23)(c2cn(C)c3ccccc23)c2cc(F)ccc21
→ 0.0% | -16.4%
- CCOC(=O)CCCCCC(=O)Nc1ccc2c(c1)C(=O)N([C@H](C)CO)C[C@H](C)[C@H](CN(C)C(=O)C1CCCCC1)OCCCC[C@@H](C)O2
→ -8.7% | -6.1%
- Clc1ccc2nc(C3CCCCC3)c(Cc3ccsc3)n2c1
→ -20.0% | -3.8%
- C/C(Nc1ccc(Cl)c(Cl)c1)=C1/CCOC1=O
→ -19.1% | 0.0%
- CCc1c(-c2cccc(Cl)c2)ncn1Cc1cccc(-c2ccccc2)c1
→ 6.4% | ?
- Fc1ccc(NC(=S)SCc2ccc3c(c2)OCO3)cc1F
→ -9.4% | -21.6%
- CCCCN1C(=O)C(C#N)CC2=C1CC(C)(C)CC2=O (stereo not drawn)
→ -17.3% | -18.4%
- Cc1noc(C)c1NC(=O)N(C)C[C@@H]1OCc2ccccc2-c2c(n(C)c3ccccc23)C(=O)N([C@H](C)CO)C[C@H]1C
→ 9.9% | -22.2%
- COC(=O)C[C@@H]1C=C[C@H](NS(=O)(=O)c2cccc(F)c2)[C@@H](CO)O1
→ 10.9% | -13.3%
- NC(c1ccccc1)c1csc(NC(=O)Nc2ccc(OC(F)(F)F)cc2)n1 (stereo not drawn)
→ 15.7% | ?
- O=C(c1ccccc1F)N1CCC2CC1c1cc(N3CCCCC3)ccc12 (stereo not drawn)
→ -4.6% | -29.1%
- O=C1N[C@@H](Cc2ccccc2)C(=O)N2[C@H]1C[C@]1(Br)c3ccccc3N(S(=O)(=O)c3ccc(F)cc3)[C@H]21
→ 7.7% | -19.6%
- CCCNC(=O)C1(C)CCN(C(=O)c2ccccc2OC(F)(F)F)C1 (stereo not drawn)
→ 0.9% | -21.9%
- CCOC(=O)CNC(=O)N1CCCC(Cc2ccccc2)(C(=O)OCC)C1 (stereo not drawn)
→ 9.4% | -6.2%
- O=C(NCc1cc2ccccc2[nH]1)C1CCC(=O)N(CC2CCCCC2)C1 (stereo not drawn)
→ 2.8% | 12.8%
- COc1cccc(C(C(=O)NC2CCCC2)N2CCN(c3cc(C)ccc3C)CC2)c1OC (stereo not drawn)
→ -8.7% | -5.2%
- COC(=O)C1=C(c2cc3ccccc3s2)C[C@@H]2CC[C@H]1N2C(=O)NCCS(C)=O (stereo partly drawn)
→ -3.4% | -14.2%
- CCc1nc2ccc(C(=O)N3CCN(C(=O)c4ccco4)CC3)cn2c1N(C)Cc1nccs1
→ -6.2%[18.4 µM] | -18.9%
- CCCCCCCCN1C(=O)[C@H](CC(=O)NCc2ccc(C)o2)C[C@@]2(C(=O)OC)CCCCC=C12
→ -10.4% | -9.4%

# Additional compounds
# Each structure is followed by: RE007 growth inh | StopGo reporter
- COc1ccc([C@H]2C[C@H](O)[C@@H](n3cc(C4CC4)nn3)CN2CC2CCCCC2)cc1
→ -33.5% | 0.0%
- COC(=O)[C@]12CCCCC=C1N(CCC1=CCCCC1)C(=O)[C@H](CC(=O)N1CCCCC1)C2
→ -9.3% | 0.0%
- COC(=O)C[C@@H]1C[C@@H]2c3cc(NS(=O)(=O)c4ccccc4)ccc3O[C@@H]2[C@@H](CO)O1
→ 10.4% | 0.0%
- COc1ccccc1N(CC(=O)NCCSCc1ccccc1)S(=O)(=O)c1ccccc1
→ -17.5% | ?
- COc1ccc(C#Cc2c(-c3ccsc3)oc3ccc(-c4cc(OC)c(OC)c(OC)c4)cc23)cc1
→ -0.3% | -10.4%
- O=C(NCc1cccs1)c1ccc2sc([C@@H]3O[C@H](CO)[C@H](O)[C@H](O)[C@H]3O)nc2c1
→ 1.8% | -13.2%
- O=C(NOCc1ccccc1)OCc1ccccc1
→ -9.3% | 66.9%[activator]
- Cc1cccc(Cl)c1NC(=O)NCCCN1CCCCC1C (stereo not drawn)
→ -9.2%[18.4 µM] | -5.7%
- CCCS(=O)(=O)NC(=O)C1(C)CCCN(C(=O)c2cccs2)C1 (stereo not drawn)
→ 1.6%[18.4 µM] | -0.6%
- COc1ccc(-c2cc(CNc3nc(NCc4ccccc4OC)nc4ccsc34)on2)cc1
→ -24.1% | ?
- COC(=O)C1=C(c2cc3ccccc3o2)C[C@@H]2CC[C@H]1N2C(=O)N1CCCC1
→ 5.3% | -29.8%
- CCOc1ccc(CCNC(=O)c2cc(-c3ccccc3)c(N3CCOCC3)s2)cc1
→ 5.6% | -4.4%
- COc1ccccc1Cc1c(-c2ccc(C#N)cc2)nc2ccc(Br)cn12
→ 11.2% | 0.0%
- O=C(NCC1CC1)c1ccc2nc([C@@H]3O[C@H](CO)[C@H](O)[C@H](O)[C@H]3O)[nH]c2c1
→ 8.2% | -14.4%
- CCCCn1nnnc1C(c1cc2ccccc2o1)N1CCN(CC(=O)NC(C)C)CC1 (stereo not drawn)
→ -2.7% | -10.0%
- COc1ccc(C(=O)N(C)[C@H]2C[C@H]3c4[nH]c5ccccc5c4CCN3C[C@H]2[C@H](C)O)cc1
→ -20.2% | -3.4%
- COCc1cccc(-c2csc(C(O)c3cccc(OC)c3)n2)c1 (stereo not drawn)
→ 4.6% | -16.9%
- COc1cccc(NC(=S)NC(Cc2ccccc2)c2ccccc2)c1 (stereo not drawn)
→ 6.1% | ?
- COCCCN1C(=O)C(CC(=O)NC(c2ccccc2)c2ccccc2)CC(C(=O)N2CCCCCC2)=C1C (stereo not drawn)
→ 1.9% | 0.0%
- COc1ccc(C(C)(O)c2nc(-c3cccc(O)c3)cs2)cc1 (stereo not drawn)
→ 11.1% | -6.8%

# Whole records, quoted from the list.
# O=C(N[C@@H]1CC[C@H](CCn2cc(-c3ccccn3)nn2)O[C@@H]1CO)c1ccncc1 as listed: RE007 growth inh: -13.1%; StopGo reporter: -16.9%
# COc1ccc([C@H]2C[C@H](O)[C@@H](n3cc(C4CC4)nn3)CN2CC2CCCCC2)cc1 as listed: RE007 growth inh: -33.5%; StopGo reporter: 0.0%
# COc1ccc(C(C)(O)c2nc(-c3cccc(O)c3)cs2)cc1 (stereo not drawn) as listed: RE007 growth inh: 11.1%; StopGo reporter: -6.8%

# Next compounds follow.
molecule | RE007 growth inh | StopGo reporter
O=c1[nH]c(=S)[nH]c2c1[C@H](CCc1cccc(Cl)c1)O[C@H](C1CCCC1)C2 | 1.2% | -27.9%
CCC(C(=O)NC(C)(C)C)n1c(-c2ccccc2)nc2ccccc21 (stereo not drawn) | -5.9% | -9.8%
CC1(C(=O)Nc2ccc(Cl)c(Cl)c2)CCN1C(=O)CC(c1ccccc1)c1ccccc1 (stereo not drawn) | -2.5%[18.4 µM] | -20.1%
COc1ccc(CCNC(=O)Nc2nc(C(N)COCc3ccccc3)cs2)cc1OC (stereo not drawn) | 10.5% | -18.7%
O=C(CC1CC2CCC1C2)N1CCN(S(=O)(=O)c2ccc(C(F)(F)F)cc2)CC1 (stereo not drawn) | 6.7% | -14.9%
O=C(NC1CC1)c1ccc2sc([C@H]3C[C@H](O)[C@@H](CO)O3)nc2c1 | -3.7%[18.4 µM] | 1.3%
CCCNC(=O)C1(C)CCCN(Cc2ccc(Cl)cc2)C1 (stereo not drawn) | -4.7% | -20.0%
CC(C)NC(=O)C1C(c2ccc(C(F)(F)F)cc2)=Nc2ccccc2N1C(=O)c1cccc2ccccc12 (stereo not drawn) | 5.2% | 36.3%[activator]
CCNC(=O)C1(C)CCCN(C(=O)c2cc(C)n(C(C)(C)C)n2)C1 (stereo not drawn) | 5.4% | -16.9%
CCCCCC(=O)N1C[C@@H](O)[C@H](n2cc(COC(=O)c3ccccc3)nn2)C[C@@H]1c1ccc(OC)cc1 | -5.1% | -24.5%
CC1=C(C(=O)N2CCCCCC2)CC(CC(=O)NCC2CCCCC2)C(=O)N1Cc1ccccc1 (stereo not drawn) | 16.5% | 12.5%
CN1CCN(C(=O)C(=O)c2cn(CC(=O)N3CCCCCC3)c3ccccc23)CC1 | 5.4% | -17.5%

# Going on with the list.
molecule | RE007 growth inh | StopGo reporter
OC(c1ccc(CN2CCCCC2)cc1)c1ncc(-c2ccccc2)[nH]1 (stereo not drawn) | -25.7%[18.4 µM] | -11.2%
N#CC1C(=O)NC(=O)C(C#N)C12CCCc1sccc12 (stereo not drawn) | -11.4% | -18.0%
OC[C@@H]1CN(Cc2cccnc2)C[C@H](n2cnc3c(N4CCN(c5ccccc5)CC4)ncnc32)O1 | 9.5% | ?
CCCCn1nnnc1C(c1ccccc1)N1CCN(C(=O)C2CCCO2)CC1 (stereo not drawn) | 6.7% | -14.9%
CC1(C(=O)NS(=O)(=O)c2cccc(C#N)c2)CCN1C(=O)c1cccc2ccccc12 (stereo not drawn) | -10.0% | -7.1%
NC(CCc1ccccc1)c1csc(NC(=O)NCCc2ccccc2)n1 (stereo not drawn) | -6.4%[18.4 µM] | -18.2%
CCc1nc2c(OCCc3cccc(OC)c3)cccn2c1N(C=O)Cc1ccccc1 | -26.7% | -17.8%
O=C(/C=C/[C@H]1O[C@@H](n2ccc(=O)[nH]c2=O)[C@H](O)[C@@H]1O)NCCN1CCOCC1 | 10.2% | -16.1%
CCCCN(C)c1c(C)nc2ccc(C(=O)NCc3ccc(OC)cc3)cn12 | -1.1%[18.4 µM] | -10.5%
CC1=C(C(=O)N(C)C)CC(CC(=O)NC2CCCC2)C(=O)N1CCCN1CCCC1=O (stereo not drawn) | -17.7% | -18.1%
CC(=O)N1CCc2cc(NC(=O)C3(C)CCN3Cc3ccccc3Cl)ccc21 (stereo not drawn) | 4.3% | -2.9%
CC(C)C[C@H]1CN([C@@H](Cc2ccccc2)CN2CCC[C@@H]2CN2C(=O)C(=O)NC[C@@H]2Cc2ccc(O)cc2)C(=O)C(=O)N1CC1CCCCCC1 | 3.0% | 11.8%
COC(=O)C1=C(CCc2ccccc2)NC(=O)NC1c1ccc([N+](=O)[O-])cc1 (stereo not drawn) | -0.7% | ?
COc1ccc(C[C@H](N)C(=O)N[C@H]2[C@@H](O)[C@H](n3cnc4c(N(C)C)ncnc43)O[C@@H]2CO)cc1 | -3.8%[18.4 µM] | ?
COc1ccc(NC(=O)C(c2ccc(C(F)(F)F)cc2)n2c(=O)c(-c3cc4ccccc4[nH]3)nc3ccccc32)cc1 (stereo not drawn) | -1.7% | -10.8%

# Quoted at random: 2 records from the list
molecule | RE007 growth inh | StopGo reporter
CC(=O)N1CCc2cc(NC(=O)C3(C)CCN3Cc3ccccc3Cl)ccc21 (stereo not drawn) | 4.3% | -2.9%
CCCCn1nnnc1C(c1ccccc1)N1CCN(C(=O)C2CCCO2)CC1 (stereo not drawn) | 6.7% | -14.9%

# Only part of the results is shown (hit frequency here may not be typical).
